Bioassay records as filed in PubChem.
Rce1 inh – blocks yeast Ras-converting enzyme; Q03530; yeast membranes, quenched prenylated peptide cleavage fluorescence; calls only; 290,000 tested, 0.27% active;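 active means fall in fluorescence gain of 50% or more versus controls, with final raw signal at or below 3038400; inconclusive means same 50% fall but final raw signal above 3038400; inactive means fall in fluorescence gain under 50%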;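 further: plate controls were neutral control wells for no effect and wells lacking membranes for full effect; tested at 10 µM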
Target sequence (Q03530 whole entry, looked up): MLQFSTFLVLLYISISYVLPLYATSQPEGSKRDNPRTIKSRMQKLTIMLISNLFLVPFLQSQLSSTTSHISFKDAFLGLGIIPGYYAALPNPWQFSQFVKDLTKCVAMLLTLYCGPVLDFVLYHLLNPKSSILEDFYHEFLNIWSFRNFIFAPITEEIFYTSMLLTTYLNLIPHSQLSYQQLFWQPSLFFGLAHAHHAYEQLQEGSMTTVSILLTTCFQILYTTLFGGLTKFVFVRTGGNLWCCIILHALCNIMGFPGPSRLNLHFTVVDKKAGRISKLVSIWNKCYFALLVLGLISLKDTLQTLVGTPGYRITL
CSC inhib – cancer stem cell inhibition. 300,000 tested, 1.1% active. AID 2717. inhibition, % at 7.5 µM. cancer stem cell-like cells viability, luminescence;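 active means mean at 75% or more and at least half the replicates too; inconclusive means mean and replicates disagree; tested in HMLE shEcad cells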;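 further: 0% = median of negative and 100% = median of positive control wells; the first replicate is given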
eIF4H FP inh – inhibitors of RNA binding by human eIF4H | 290,000 tested, 0.94% active | inhibition, % at 35 µM | eIF4H fluorescence polarization binding assay | AID 2012;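 active means 50% or more with normal probe brightness, or confirmed in later tests; inconclusive means above 50% with abnormal brightness, or retests that disagree; inactive means below 50% or failed in later tests; about a fifth of its hits are not listed in these tables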;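 further: calls also rest on retests at 20 µM and on dose response follow-up; 0% = protein and probe with vehicle and 100% = probe without protein; strong numbers were not always called active; many hits fall short of the cut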
UUG fidelity – alters start codon recognition fidelity in yeast; activity score, % at 18.7 µM; AID 602363; 350,000 tested, 0.13% active; S. cerevisiae UUG-firefly luciferase reporter, luminescence/redox ratio;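 active means replicate mean at a twofold rise or more, about +100% in these data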;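 further: firefly luciferase made from a UUG start codon reports start codon fidelity; reporter light over untreated wells divided by growth signal over untreated wells; some hits fall short of that in this replicate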
HIV Env fusion – inhibitors of HIV Env-mediated cell fusion. 360,000 tested, 1.1% active. inhibition, % at 12.3 µM. HeLa-JRFL Env/CEM21 cell fusion, luciferase;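 active means mean replicate inhibition score of at least 50 and every replicate individually at or above 50; inconclusive means only one of the two criteria met; inactive means mean below 50 and not all replicates reaching 50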;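 further: 0% = plate neutral controls and 100% = maraviroc near 300 nM; one replicate is shown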
PABP FP inh – PABP-poly(A) binding inhibition. P11940. PABP-poly(A) RNA binding, fluorescence polarization. inhibition, % at 35 µM. 290,000 tested, 1% active. AID 2014;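 active means 50% or more with normal probe brightness, or confirmed in later tests; inconclusive means above 50% with abnormal brightness, or retests that disagree; inactive means below 50% or failed in later tests; about a fifth of its hits are not listed in these tables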;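 further: calls also rest on retests at 20 µM and on dose response follow-up; controls were probe without protein and protein plus probe with vehicle; some compounds called inactive have numbers as strong as hits; many hits fall short of the cut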
MT1-MMP act inh – inhibitors of human MT1-MMP activation; HT1080 RFP-PRO-GFP cells, GFP/RFP ratio fluorescence, overnight; percent of plate control window, DMSO zero; AID 651647; GFP/RFP ratio change, % at 20 µM; 360,000 tested, 0.061% active; P50281;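 active means GFP/RFP ratio change of at least 30% with cell ATP level not reduced by more than half and red fluorescence within 50% of control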; further: strong numbers were not always called active
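Read-out: GFP/RFP fluorescence ratio; Test system: RFP-PRO-GFP reporter HT1080 cells; Compound dosing: single-point 20 µM compound, 1% DMSO; Times: overnight compound exposure at 37 °C.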
eIF4H FP inh retest – further read-out of eIF4H FP inh, marked with its call; inhibition, %; compound at 20 µM; confirmation average;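 mean of two retest wells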
PABP FP inh retest – also measured in PABP FP inh; calls as there; inhibition, %; compound at 20 µM; confirmation repeats;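 mean of two retest wells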
MT1-MMP act inh RFP – further read-out of MT1-MMP act inh, marked with its call; RFP signal change, %; measured here: RFP expression control read;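 0 = vehicle wells; hits needed this value within 50% of zero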
* hit, by the source's call; i = inactive; u = inconclusive; x = no result given; & = joins results of further samples.

SMILES	Rce1 inh	CSC inhib	eIF4H FP inh	UUG fidelity	HIV Env fusion	PABP FP inh	MT1-MMP act inh	MT1-MMP act inh RFP	others
O=C(COc1ccc(Cl)cc1)Nc1nc(-c2cccs2)cs1	i	7	-6	1	x	4	3	1
Cn1nccc1C(=O)N1CCCC(Nc2ccc(F)cc2)C1 (stereo unspecified)	i	3	-7	-21	-2	0	5	-1
Cc1nn(Cc2cccc(C(=O)Nc3ccn(Cc4ccccc4)n3)c2)c(C)c1[N+](=O)[O-]	i	8	1	x	x	10	2	-10
Cc1ccccc1NC(=O)CSc1nnc(-c2ccco2)n1N	i	15	x	1	-2	x	0	4
CCCCn1c(-c2cccs2)nc2oc3ccccc3c(=O)c2c1=O	i	-4	-6	x	-17	8	1	-2
O=C(Nc1ccc(N2CCN(C(=O)c3ccccc3)CC2)c(Cl)c1)c1ncn[nH]1	i	33	8	-9	6	6	-3	-7
COc1ccccc1-c1ccc(SCC(=O)NCCc2ccccc2)nn1	i	13	-3	-6	2	17	2	1
Cc1ccc(NC(=O)C2CCC(=O)N2C(=O)OCc2ccccc2)cc1 (stereo unspecified)	i	x	-4	-22	-16	10	1	0
COc1ccc(NS(=O)(=O)c2ccc(NC(=O)c3ccc(Br)cc3)cc2)nn1	i	-8	-7	x	0	-3	7	-7
CCOC(=O)CC1OC(=O)c2cc3c(cc21)C(=O)OC3CC(=O)OCC (stereo unspecified)	i	4	-4	-12	5	1	-2	0
Cc1nc(NC(=O)CCCC(=O)Nc2nc(C)c(C)s2)sc1C	i	-6	8	-17	-7	-11	-6	-4
COCC(=O)Nc1ccc(OCc2ccccc2)cc1	i	-9	-8	x	-29	18	4	4
O=C(NCC1CCCO1)c1nc2c(nnn2Cc2ccccc2Cl)c(=O)[nH]1 (stereo unspecified)	i	5	2	-14	11	15	3	-3
Cc1cccc(-n2nnc(C(=O)NCc3ccccn3)c2N)c1	i	-6	-13	-6	-121	-13	4	1
COc1ccc(Cl)cc1NC(=O)CN(C)C(=O)COc1ccccc1F	i	x	-4	-1	17	-10	x	x
N#C/C(=N\Nc1cccc(F)c1)C(=N)N1CCCCCC1	x	-2	-5	x	-45	-7	2	-2
O=C(Oc1ccc(/C=N/NC(=O)c2ccccn2)cc1)c1cccc(Br)c1	i	-11	-4	1	-106	-5	-2	3
CC(=O)c1coc2ccc(OCCN3CCCCC3)cc12	i	-21	-2	3	x	13	5	2
Cc1ccc(C(=O)/C=C/c2cc(Br)cc(Br)c2O)o1	i	94*	5	-9	-7	9	-11	37
CC(C)NC(=O)C(=O)NCCCN1CCOCC1	i	-1	-7	x	-9	0	4	4
N#Cc1ccc(C2=NC(C(F)(F)F)(C(F)(F)F)c3c(n(Cc4ccco4)c(=O)[nH]c3=O)N2)cc1	i	39	6	-3	7	6	-3	-13
COc1ccc(N2Cc3ccccc3C2=NC(=O)c2cncc(Br)c2)cc1	i	9	8	x	-9	7	-1	2
Cc1c(NC(=O)CCC(=O)N2CCOCC2)c(=O)n(-c2ccccc2)n1C	i	1	3	-15	x	-7	-1	2
CCOc1ccc(NC(=O)CN(C)C(=O)CSCc2cccc(C)c2)cc1OCC	i	3	x	2	2	x	4	4
CCC(=NCCc1ccccc1)C1=C(O)CCC1=O	i	-11	7	-8	x	8	-2	1
COc1ccc(OCCNC(=O)c2ccccc2OCC(=O)N2CCCCC2)cc1	i	x	-2	-10	11	-10	1	-7
CSCCC(C(=O)Nc1c(C)cccc1C)N1CCN(c2ccc(F)cc2)CC1 (stereo unspecified)	x	x	x	4	-21	x	6	2
O=C(NCCCc1ccccc1)c1c(O)nc2sccn2c1=O	i	-10	x	-2	21	x	6	5
Cc1cc2cc(C)c3nnc(SCC(=O)N4CCCc5ccccc54)n3c2cc1C	i	-8	-10	x	x	-5	x	x
CC(=O)c1ccc(S(=O)(=O)N2CCN(CC#N)CC2)cc1	i	-9	-9	x	-47	-5	-1	6
Cc1noc(C)c1C(=O)Nc1ccc(-c2nnc3n2CCCCC3)cc1	x	x	x	-16	-15	x	2	-2
COc1ccc(N2CCN(C(=O)CSc3nc4cc(OC)c(OC)cc4cc3C#N)CC2)cc1	i	-11	26	-22	-30	40	-4	-17
Cc1cc(N2CCOCC2)nc2ccc(NC(=O)CCC(=O)N3CCN(c4ccccc4)CC3)cc12	i	-3	8	-10	-22	3	5	0
O=C(NCc1ccc(F)cc1)C(=O)NCC1OCCN1S(=O)(=O)c1cc(F)ccc1F (stereo unspecified)	x	x	x	-7	-17	x	-3	-1
C[C@H]1CN([C@@H](C)CO)C(=O)c2cc(Br)cnc2O[C@@H]1CN(C)S(=O)(=O)c1ccccc1	x	x	x	3&10	3	x	4	1
Nn1c(SCC(=O)Nc2ccc(S(N)(=O)=O)cc2)nnc1C(F)(F)F	i	-6	-4	-22	1	-8	2	3
O=C(N/N=C/C(Cl)=C/c1ccc([N+](=O)[O-])cc1)C(=O)Nc1ccccc1C(=O)O	i	13	8	-24	50	12	2	-3
Cc1ccc2nc(NC(=O)CCn3cccc3)sc2c1	i	24	-4	x	-37	u	2	-2
CC(=O)Nc1ccc(S(=O)(=O)N(C)CC(=O)OCCOc2cccc(C)c2)cc1	i	-12	-6	-9	-24	8	3	2
O=C(CCOc1ccccc1)Nc1ccccc1F	i	-2	-9	13	x	8	-1	1
COc1ccccc1C(=O)Nc1cccc(C(=O)c2ccccc2)c1	i	9	4	1	-18	0	-1	-3
Cc1nn(Cc2ccccc2Cl)c(C)c1C(=O)NCC(c1cccs1)N1CCOCC1 (stereo unspecified)	i	x	x	-9	6	x	-1	-3
O=C(Nc1ccccn1)C1CCN(S(=O)(=O)c2cccs2)CC1	i	-20	1	-19	x	5	-3	-5
COC(=O)[C@]1(Cc2ccccc2)N[C@H](CN(C)C(=O)Nc2ccc(OC)cc2)[C@@H]2C(=O)N(Cc3ccccc3)C(=O)[C@@H]21	x	x	x	-22	-2	x	3	-2
OC(COCCOc1ccc(Br)cc1)CN1CCCCC1 (stereo unspecified)	i	29	6	x	2	6	-2	-2
O=[N+]([O-])c1ccc(-c2cn3ccccc3n2)cc1	i	8	x	-18	-153	x	8	3
CC(C)CC(COCc1ccc(C(F)(F)F)cc1)N1CCN(C(=O)c2ccc(C(F)(F)F)cc2)CCC1=O (stereo unspecified)	i	-2	4	-9	58*	5	-5	-22
Cc1cccc(-n2c(SCC(=O)NC3CCCC3)nnc2-c2ccoc2C)c1	i	4	-7	-4	-6	54	0	3	eIF4H FP inh retest=-8;PABP FP inh retest=3
CCc1ccc(OC(=O)c2ccn(CC)n2)cc1	i	26	-1	-9	x	0	5	2
COc1ccc(N(CC(=O)N2CCN(c3ccccc3)CC2)S(=O)(=O)c2ccccc2)cc1	x	x	x	-6	-26	x	-1	-2
Cc1ccc2c(c1)C(O)(CC(=O)/C=C/C=C/c1ccccc1)C(=O)N2 (stereo unspecified)	i	-5	-6	1	6	-1	1	3
Cc1nn(CC(=O)N(C)C2CCC(C)CC2)c(C)c1S(=O)(=O)N(C)C (stereo unspecified)	x	-5	x	-8	x	x	6	-1
O=C(COc1cccnc1[N+](=O)[O-])NCCc1ccc(F)cc1	i	-3	0	-7	-14	-14	2	2
O=C(c1cc2ccccc2oc1=O)N(Cc1cccc(Br)c1)C1CCS(=O)(=O)C1 (stereo unspecified)	i	11	-18	13	11	-11	-1	-2
COc1ccccc1OCC(=O)NC1CCCCCCC1	x	-9	x	0	x	x	7	-5
O=C(CCN1CCN(c2ccccc2)CC1)Nc1ccc(Cl)cc1	i	1	6	-10	-204	-2	5	0
O=C(NCCc1ccccc1)c1ccccc1NC(=O)C1CCCO1 (stereo unspecified)	i	-17	-2	x	-20	4	-3	-2
O=C1CSc2ccc(C(=O)N3CCCCC3)cc2N1	x	x	x	-2	-5	x	0	3
COC1=Cc2c(ccc3ccc(=O)oc23)OC1(C)C	i	3	-5	-14	-123	-1	0	-8
O=C(NCC(=O)N1CCN(c2ccccc2F)CC1)c1ccc(Br)o1	i	x	x	-1	11	x	4	2

(more compounds)
SMILES	Rce1 inh	CSC inhib	eIF4H FP inh	UUG fidelity	HIV Env fusion	PABP FP inh	MT1-MMP act inh	MT1-MMP act inh RFP	others
CC(=O)Nc1ccc(S(=O)(=O)NCC2CCC(C(=O)NCCC(C)C)CC2)cc1 (stereo unspecified)	i	3	-3	3	x	8	1	1
COc1ccc2oc(C(=O)OCC(=O)N(Cc3ccccc3)C(C)(C)C)c(C)c2c1	i	2	3	-3	12	8	-3	-4
COc1ccc(-n2ccc(=O)c(C(=O)O)n2)c(OC)c1	i	-13	-7	-11	-12	5	4	9
CCOC(=O)C(CC)(CCC(=O)O)c1csc(N)n1 (stereo unspecified)	x	-23	-10	-17	-18	-8	0	-2
O=C(C1CCC(CNS(=O)(=O)c2cccc3cccnc23)CC1)N1CCCC1 (stereo unspecified)	i	-10	3	-9	9	-22	2	6
C=CCS/C(=N\n1cnc2ccccc2c1=O)N1CCCCC1	i	0	7	-14	x	1	0	-2
CN(CC(=O)Nc1ccccc1Cl)C(=O)c1cccc(S(=O)(=O)N2CCN(c3ccc(F)cc3)CC2)c1	i	3	-9	-2	35	8	-4	-25
Nc1c(Cl)cc(Cl)cc1C(=O)OCC(=O)NC1CC1	i	-3	0	-19	x	5	-3	0
CCOc1ccc(NS(=O)(=O)c2csc(C(N)=O)c2)cc1	i	-6	-1	-16	-16	-1	7	-6
CCOc1ccc(N=C2SC(C(=O)O)CC(=O)N2C)cc1 (stereo unspecified)	i	-16	-6	-16	-57	5	5	2
CC1(c2nnc(Cc3ccccc3)o2)CC(c2ccccc2F)=NO1 (stereo unspecified)	i	-10	x	-11	17	x	4	3
Cc1nn(C(=O)c2ccco2)c(C)c1Sc1ccccc1	i	-5	-12	-10	x	-5	-2	-4
O=C(Cc1ccccc1)NCC(=O)OCc1cccc([N+](=O)[O-])c1	i	-3	0	-8	-5	-11	0	-2
Cc1ccc(C(=O)C2CCN(CC(=O)NC3CCCC3)CC2)cc1	i	-1	-6	-10	-17	-2	0	0
O=C(CN1CCCCCCC1)NC(=O)NC1CCCCC1	i	4	1	x	3	2	7	2
Cc1cccc(N2CC(C(=O)O)CC2=O)c1 (stereo unspecified)	x	-5	2	-21	-89	15	1	9
CC(c1ccccc1)C1C(C#N)=C(N)SC(N)=C1C#N (stereo unspecified)	i	-7	0	-27	x	34	5	1
COC(=O)NC(NC(=S)Nc1ccccc1OC)C(Cl)(Cl)Cl (stereo unspecified)	i	4	-1	-21	x	-4	-4	2
CN(C)S(=O)(=O)c1cccc(-c2nnc(SCCNCCO)n2-c2ccc(F)cc2)c1	i	3	21	57	4	-2	-7	-4
CC(C)(C)Nc1cccccc1=O	i	-14	20	8	x	15	2	9

Of the compounds above, 3 have a CF3 group.
SMILES	Rce1 inh	CSC inhib	eIF4H FP inh	UUG fidelity	HIV Env fusion	PABP FP inh	MT1-MMP act inh	MT1-MMP act inh RFP	others
N#Cc1ccc(C2=NC(C(F)(F)F)(C(F)(F)F)c3c(n(Cc4ccco4)c(=O)[nH]c3=O)N2)cc1	i	39	6	-3	7	6	-3	-13
Nn1c(SCC(=O)Nc2ccc(S(N)(=O)=O)cc2)nnc1C(F)(F)F	i	-6	-4	-22	1	-8	2	3
CC(C)CC(COCc1ccc(C(F)(F)F)cc1)N1CCN(C(=O)c2ccc(C(F)(F)F)cc2)CCC1=O (stereo unspecified)	i	-2	4	-9	58*	5	-5	-22
